High-throughput results from PubChem.
Calb biofilm kill – mixtures killing C. albicans biofilm | C. albicans biofilm persisters + clotrimazole, fluorescence viability; primary screen in compound mixtures of four per well | inhibition, % at 7.6 µM | 120,000 compounds, 0.02% hits | AID 1242;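 active = inhibition above 30.3% in the primary screen of four-compound pools, then above 30% when the compound was retested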;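 also: compounds exposed to preformed 24 h biofilms for 48 h; the number belongs to the whole pool; some results filed as inactive read as strong as hits; inactives centre near 12; 0% = biofilm with clotrimazole alone and 100% = kill control; retested singly at about 60 µM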
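Test system: C. albicans CAF4-2 wild-type biofilms; buffer or medium: RPMI/MOPS medium, pH 7.0; schedule: 24 h biofilm formation, then 48 h compound exposure, 37 °C; detection: Alamar Blue fluorescence; measure: percent inhibition of biofilm viability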
Active calls of the source: *.

SMILES,Calb biofilm kill
COc1cccc(C(=O)C2CCCN(C(=O)c3cccc(C#CC(C)(C)O)c3)C2)c1 (configuration not stated),5.0
O=S(=O)(c1cccc2cccnc12)N1CCCc2ccccc21,29.6
COc1ccc(-c2cc(-c3n[nH]c(=S)n3-c3cc(OC)ccc3OC)[nH]n2)cc1,16.2
Cc1ccn2c(Nc3ccccc3)c(-c3ccccn3)nc2c1,17.4
FC(F)(F)c1cc(-c2ccco2)nc2ncnn12,13.3
COc1ccc(C(=O)Nc2c(C)csc2C(=O)O)cc1,8.9
O=C(C1=C[C@@H](C2CCCCC2)C[C@@H](OCc2ccc(CO)cc2)O1)N1CCOCC1,17.3
Nc1c(C(=O)c2ccccc2)sc2nsc(SCCN3CCOCC3)c12,10.0
CC1Cc2ccccc2N1C(=S)Nc1cccc(S(=O)(=O)N(C)C)c1 (configuration not stated),14.7
Cc1cc(NC(=S)N(CCCN2CCOCC2)Cc2ccco2)ccc1Cl,14.4
Cc1ccc(N(C(=O)Cc2cccs2)C2C=CS(=O)(=O)C2)cc1Cl (configuration not stated),11.4
COc1cccc(NC(=S)NCCCN2CCOCC2)c1,21.3
CC(=O)c1ccc(NC(=O)CSC(=S)N2CCCC2)cc1,6.4
CCOC(=O)c1c(C)[nH]c(C)c1C(=O)COc1ncnc2cc([N+](=O)[O-])ccc12,7.2
Cc1c(C(=O)O)c(=O)n(-c2ccccc2)n1-c1ccccc1,9.5
COc1ccc(OC)c(/C=N/Nc2cc(C)nc(N3CCOCC3)n2)c1,-4.7
Cn1c(N)c(C(=O)COC(=O)c2ccc3c(c2)C(=O)N(c2ccc(Cl)cc2)C3=O)c(=O)n(C)c1=O,12.9
CCc1cccc(C)c1NC(=O)COn1nnc2ccc(C(F)(F)F)cc21,10.6
COc1cc(/C=C2\C(=O)N(c3ccc(NC(C)=O)cc3)N=C2c2ccccc2)ccc1O,17.7
CC(=O)Nc1ccc(NC(=O)C(C)OC(=O)C2CCN(S(=O)(=O)c3cccs3)CC2)cc1 (configuration not stated),19.6
O=C(CN1C(=O)c2ccccc2S1(=O)=O)c1ccc(F)cc1,14.3
NC(=S)NNC(=O)c1cc(C(F)(F)F)cc(C(F)(F)F)c1,10.2
Nc1ccccc1NC1CCCCC1,-3.0
CC1=C(C(=O)Nc2ccccc2F)C(c2cccs2)C2=C(CCCC2=O)N1 (configuration not stated),11.6
O=C(COc1ccc(Br)cc1)N/N=C1/SCC(=O)N1Cc1ccccc1,9.5
CN(C(=O)CSc1nnnn1-c1ccc(O)cc1)C1CCS(=O)(=O)C1 (configuration not stated),10.3
Cc1ccc(O)c(NC(=O)CSc2ccc(Cl)cc2)c1,19.5
Nc1ncccc1OCc1ccc(Cl)c(Cl)c1,5.8
COc1ccc(Cl)cc1NC(=O)Nc1cn(C)nc1C,25.3
O=C(Nc1ccc(Cl)cc1)Nc1ccc(C(=O)N2CCOCC2)cc1,11.4
C[N+](C)(C)CCCCCCCCCC[N+](C)(C)C,2.3
Cc1cc(C)nc(SCC(=O)N/N=C/C=C/c2ccccc2)n1,1.4
Nc1nc2c(F)c(F)c(F)cc2s1,12.8
CC(=O)NCCC(=O)N1CCCC(C(=O)c2ccc3c4c(cccc24)CC3)C1 (configuration not stated),6.9
NC(=O)CSc1ccc(F)cc1,3.6
Cc1ccc(/C=C2/C(=O)c3ccc(C(=O)O)cc3C2=O)o1,16.9
O=C(Oc1ccc2c3c(c(=O)oc2c1)CCC3)c1ccccc1[N+](=O)[O-],5.6
Cc1ccc(S(=O)(=O)N2CCC(=O)N(CCOCc3ccc(F)cc3)CC2)cc1,4.2
CC/C(=N\NC(N)=O)c1ccc(OC)c(OC)c1,18.8
Cc1ccc(O)c(NC(=S)NC(=O)COc2ccc(Br)cc2)c1,9.2

Next part; it opens with the five that closed the last part.
SMILES,Calb biofilm kill
Cc1ccc(/C=C2/C(=O)c3ccc(C(=O)O)cc3C2=O)o1,16.9
O=C(Oc1ccc2c3c(c(=O)oc2c1)CCC3)c1ccccc1[N+](=O)[O-],5.6
Cc1ccc(S(=O)(=O)N2CCC(=O)N(CCOCc3ccc(F)cc3)CC2)cc1,4.2
CC/C(=N\NC(N)=O)c1ccc(OC)c(OC)c1,18.8
Cc1ccc(O)c(NC(=S)NC(=O)COc2ccc(Br)cc2)c1,9.2
COc1ccc(NCc2ccc([N+](=O)[O-])s2)cc1,8.0
COc1cc(-c2cc(C(=O)NN3CCN(C)CC3)c3ccccc3n2)cc(OC)c1OC,-7.5
CC1CCCCC1NC(=O)CCCn1c(=S)[nH]c2ccccc2c1=O (configuration not stated),5.0
CC(CC(=O)O)CC(=O)NNC(=O)c1cccc(Br)c1 (configuration not stated),13.9
Cc1c(C(=O)N/N=C/C(C)C)[nH]c2c([N+](=O)[O-])cccc12,10.8
CN(C)S(=O)(=O)c1ccc(Cl)c(NC(=O)COC(=O)CCC(=O)c2cccs2)c1,4.6
COc1cc(NC(=S)NCCCO)c(OC)cc1Cl,10.2
CCOC(=O)c1cnn(-c2ncnc3c2cnn3C)c1N,7.8
COc1ccc(CN2CC(=O)N(c3ccccc3C)C2=S)cc1OC,13.3
Cc1ccc(S(=O)(=O)Nc2nc(C)c(C(=O)NN)s2)cc1,9.2
Cn1c(NC(=O)c2ccccc2F)c(-c2cccs2)c(=O)c2ccccc21,23.4
COc1ccc2c(c1)oc(=O)c1ccccc12,24.6
O=C(CONS(=O)(=O)c1ccc(Cl)cc1)NCCNc1ncc(C(F)(F)F)cc1Cl,17.1
Fc1ccc(CNC(=S)NC2CCCCC2)cc1,5.3
COC(=O)c1c(NC(=O)COC(=O)c2ccccc2O)sc2c1CCCCC2,11.8
COc1ccc(S(=O)(=O)N2CCCCC2)cc1NC(=S)Nc1ccccc1,18.9
O=C(CSc1nnc(-c2ccccc2)n1Cc1ccccc1)NNC(=O)c1ccccc1O,8.7
CN(c1ccccc1)S(=O)(=O)c1cccc(C(=O)Nc2ncn[nH]2)c1,26.1
Cc1ccc(NC(=O)COc2ncnc3ccccc23)cc1S(=O)(=O)N1CCOCC1,6.5
CCCn1nnc(NC(=O)c2ccc([N+](=O)[O-])cc2Cl)n1,-1.2
Cc1ccc(S(=O)(=O)N2CCC(C(=O)N[C@@H](C)C(=O)NC3CCS(=O)(=O)C3)CC2)cc1 (some centres not stated),-0.2
Cc1ccc(C(=O)NC2=NCCS2)cc1,19.6
CSc1ncccc1C(=O)Nc1ccc(OC(F)(F)F)cc1,-14.0
Cc1cc(C)nc(-n2ncc3c2CC(c2ccc(F)cc2)CC3=O)n1 (configuration not stated),2.8
CCc1ccc(C(=O)COC(=O)c2cnc(C)cn2)cc1,-7.7
Cc1ccc2oc(-c3cc(NC(=O)c4ncn[nH]4)ccc3O)nc2c1,20.8
CCCOc1cccc(-c2nc3ccccc3c(=O)o2)c1,12.5
COCCNC(=O)COC(=O)c1ccc(S(=O)(=O)N2CCOCC2)cc1,11.0
Cn1c2c(c(=O)n(C)c1=O)C(c1cccc(F)c1)C(C#N)=C(N)O2 (configuration not stated),14.9
CC(C)CC(=O)NNC(=S)NCc1ccco1,7.5
N#Cc1c(NC(=O)c2ccccc2Cl)n(Cc2ccccc2)c2nc3ccccc3nc12,15.0
Cc1cc(C(=O)NCc2ccco2)c2cc(F)ccc2n1,10.0
C#CCOCCOCCOCCNc1nc(N2CCN(C(=O)[C@H](CCC(=O)O)n3cc(C(N)CC(C)C)nn3)CC2)nc(N2CCN(C(=O)[C@H](CCC(=O)O)n3cc(C(N)CC(C)C)nn3)CC2)n1 (some centres not stated),18.1
CCN(CC)CCNC(=O)C(=O)Nc1ccc(C(=O)OC)cc1,27.5
Fc1c(CSC(=S)N2CCOCC2)cccc1CSC(=S)N1CCOCC1,18.9
COc1ccc(OCCCC(=O)Nc2ccc(N3CCCCC3)cc2)cc1,15.0
O=C(COC(=O)/C=C/c1ccccc1Cl)NC1CCCCCC1,7.2
O=C(Nc1ccccc1C(=O)Nc1ccccn1)c1ccc([N+](=O)[O-])cc1,2.2
O=C(Nc1cc(F)cc(F)c1)c1sc(Cl)nc1-c1ccccc1,10.4
COCC(C)n1c(SCC(=O)NNC(=O)c2ccc(F)cc2)nc2ccccc2c1=O (configuration not stated),23.4
CC(C)c1nc2scc(-c3ccc(Cl)cc3)c2c(=O)n1N,20.3
Cc1ccc(NC2=NCC(=O)N2C2CCCC2)cc1C,22.7
COc1cc(CC(=O)OCC(=O)NCC(C)C)cc(OC)c1OC,10.4
CNC(=S)N1N=C(c2ccc(OC)cc2)CC1c1ccc(Cl)cc1Cl (configuration not stated),13.2
O=C(CNS(=O)(=O)c1ccc(F)cc1)N1CCCCCC1,27.8
NC(=O)c1ccc(N=Nc2c(-c3ccccc3)[nH]n(-c3ccccc3)c2=O)cc1,10.1
c1ccc(SCc2cn3cccnc3n2)nc1,8.7
O=S(=O)(c1ccc(F)cc1)c1snnc1-c1ccccc1,13.3
CSc1nc(N)n(-c2cc(C(F)(F)F)ccn2)n1,22.0
Cc1cc(C)c(C(=O)/C=C/C=C/c2ccccc2)c(=O)[nH]1,10.8
Cc1ccc(-n2c(SCC(=O)N/N=C/c3ccccc3C(=O)O)nnc2-c2ccc(Cl)cc2)cc1,24.4
CCOc1ccc2nc(SCC(=O)Nc3cccc(S(=O)(=O)NC4=NCCCCC4)c3)[nH]c2c1,-3.3
Cc1cc(=O)oc(C)c1C(=O)NCCN(C)Cc1ccccc1,14.5
O=C(CCc1ccccc1)Nc1ccc(N2CCCCC2)cc1,5.5
COc1ccc(CNC(=O)COC(=O)c2cncc(Br)c2)cc1,34.7
COC(=O)[C@@H](NC(=O)CCc1nnc(-c2ccsc2)o1)C(C)C,7.5

Later entries.
SMILES,Calb biofilm kill
COC(=O)C(C)NC(=O)CNS(=O)(=O)c1ccc(F)cc1 (configuration not stated),11.3
O=C(C1CC(=O)N(C2CCCCC2)C1)N1CCc2ccccc21 (configuration not stated),15.5
COc1nsnc1N1CCOCC1,8.8
Cc1nn2cc(-c3cccc(Cl)c3)cnc2c1Br,10.3
C/C(=C\C(=O)c1sccc1Cl)N(C)C,6.5
NC(=O)c1cc([N+](=O)[O-])ccc1NCCN1C(=O)c2ccc(C(=O)O)cc2C1=O,11.9
Clc1ccc(-c2c(C3=NCCCN3)nnn2-c2ccc(Cl)cc2)cc1,18.9
CCOC(=O)Cc1cc(=O)n2[nH]c(C(C)(C)C)cc2n1,20.6
CCCCNC(=S)NNC(=O)c1csc(C)c1C,-11.4
Cc1cccc(NC(=S)N(CCc2ccncc2)C(C)C)c1C,6.2
N#CC(c1ccccc1)C1CCN(Cc2ccccc2)CC1 (configuration not stated),11.2
COCCNC(=S)N/N=C(\C)c1cccc(C(F)(F)F)c1,9.0
COc1ccccc1C1C2=C(N=c3s/c(=C/c4cccc(OCC(=O)O)c4)c(=O)n31)c1ccccc1CC2 (configuration not stated),12.0
CCn1c(=O)c(=O)[nH]c2cc(C(=O)NC3CCCC3)ccc21,9.3
CC1CCCN(C(=O)CCc2ccccc2)C1 (configuration not stated),7.9
COc1ccccc1-n1c(CNC(=O)c2cccc([N+](=O)[O-])c2C)n[nH]c1=S,16.2
Clc1ccc(-c2nc(-c3cnccn3)no2)cc1,22.4
CCOc1ccccc1NC(=O)COC(=O)/C=C/c1ccc(OC)c(OC)c1,8.6
Brc1ccc2oc(-c3ccn[nH]3)cc2c1,23.6
Cc1cccc(-n2c(C)cc(/C=N\NC(=O)c3cccs3)c2C)c1,1.4
NC(=O)c1nc(-c2cccs2)nc2c1[nH]c(=O)n2-c1ccc(F)cc1,10.1
Cc1ncc([N+](=O)[O-])n1CC(=O)N/N=C/c1ccc(F)cc1,12.0
Cc1cc(C)c(NC(=O)CN2C(=O)NC(Cc3ccccc3)C2=O)c(C)c1 (configuration not stated),18.1
Cc1cccn2c(=O)c3cc(C(=O)NCc4ccco4)c(=N)n(CCc4ccccc4)c3nc12,13.0
Cc1cccc(C)c1NC(=S)Nc1ccc(Cl)c(Cl)c1,14.9
COc1ccccc1NC(=O)CSc1nc2c(sc3ccccc32)c(=O)n1CCN(C)C,13.2
COc1ccc2c(c1)sc(=N)n2C,2.1
CN1CCN(CCCN(Cc2cccs2)C(=S)Nc2ccc(Cl)cc2)CC1,11.3
CCCNC(=O)COC(=O)/C=C/c1ccco1,8.4
C/C(=N\N1CCN(C)CC1)c1ccc(Cl)c(Cl)c1,5.6
Cc1nc(CNS(=O)(=O)c2ccc3c(c2)OCCO3)cs1,10.1
Cc1ccc(S(=O)(=O)Oc2ccc(N3C(=O)C4C5CCC(C5)C4C3=O)cc2)cc1 (configuration not stated),17.0
COc1ccc(C(=O)Nc2nc3ccc(S(C)(=O)=O)cc3s2)cc1OC,9.2
O=C(CSc1ncnc2nc[nH]c12)Nc1nnc(SCc2ccc(Cl)c(Cl)c2)s1,-3.7
CCOC(=O)c1c(NC(=O)CNC2CCCc3ccccc32)sc(C(N)=O)c1C (configuration not stated),11.3
Cc1cc(NC(=O)Cn2cnc3c(nnn3-c3cccc(F)c3)c2=O)no1,9.4
CC(C)NC(=O)NNC(=O)Cn1nnc(-c2cccc(Cl)c2Cl)n1,17.8

An excerpt. The share of hits here may be higher or lower than overall.
